2A Renilla = Primary qHTS Assay for Foot and Mouth Disease Virus Antivirals against NCGC Sytravon and CBC Compound Libraries: Renilla Luciferase Signal | HEK cells with a luciferase reporter of 2A StopGo recoding | Potency, µM (doses to about 57.5 µM), for the others: at the top dose signal change, negative = less light | actives 0.32% (n = 120,000) | AID 1745857, 2022; active means well fitted falling curve with a large enough effect; inconclusive means small, poorly fitted or top-dose-only effect; inactive means no such curve, though single readings can be large or run the other way; also: nearly all actives have a fitted effect of over 55% in size; overnight with compound
2A firefly = Primary qHTS Assay for Foot and Mouth Disease Virus Antivirals against NCGC Sytravon and CBC Compound Libraries: Firefly Luciferase Signal | HEK cells with a luciferase reporter of 2A StopGo recoding | Potency, µM (doses to about 57.5 µM), for the others: at the highest dose signal change, negative = less light | actives 0.23% (n = 120,000) | AID 1745856, 2022; active = well fitted falling curve with a large enough effect; inconclusive = small, poorly fitted or top-dose-only effect; inactive = no such curve, though single readings can be large or run the other way; also: nearly all actives have a fitted effect of over 60% in size; overnight with compound
An asterisk follows results filed as active; u = inconclusive; & = joins results of further samples; [ ] = another dose, or the depositor's remark. % is scaled to controls: 0 for no effect and ±100 for the full control effect; potency is read from the fitted curve at half-maximal effect.

SMILES	2A Renilla	2A firefly
CCCCc1nn2c(=O)cc(CSCC(=O)Nc3cccc4ccccc34)nc2s1	2%	5%
O=C(NCCCN1CCN(Cc2ccccc2)CC1)c1ccccc1C(F)(F)F	3%	-5%
CC(=O)c1sc(NC(C)C)c(C#N)c1N	-4%	6%
COc1ccccc1CCNC(=O)Cc1c(C)c2ccc(OC)c(C)c2oc1=O	-6%	0%
CC1CCCN(Cc2c(O)ccc3c(=O)c(-c4ccc(Cl)cc4)c(C(F)(F)F)oc23)C1 (stereo not given)	-5%	-8%
CC(=O)N[C@@H](CCC(N)=O)C(=O)O	-8%	-16%
CCOc1ccc(C2CCCN2Cc2coc(-c3ccc(OC)cc3)n2)cc1 (stereo not given)	-4%	11%
CCOc1ccc(C(=O)N2N=C(C)CC2(O)C(F)(F)F)cc1 (stereo not given)	14%	39%[activator]
CC1CCN(S(=O)(=O)c2ccc3nc(N4CCN(c5ccc(F)cc5)CC4)ccc3c2)CC1	9%	-2%
COc1ccc(OC)c(C(=O)c2oc3ccc(NC(=O)C(C)(C)C)cc3c2C)c1	12%	-3%
Cc1cc(F)ccc1NCc1ccccc1-c1nnc(-c2ccccc2Cl)o1	0%	35%[activator]
O=C1C(c2ccccc2)=C(c2ccccc2)c2ccccc21	21%	16%
Cc1ccc(NC(=O)C2CCCN(C(=O)Cc3cccc4ccccc34)C2)c(Cl)c1 (stereo not given)	u	u
CC(C)CC(NC(=O)C1CCC(C(C)C)CC1)C(=O)O (stereo not given)	2%	6%
O=C(c1ccco1)N1CCN(C(=O)C2CCN(c3nnc(N4CCCCC4=O)s3)CC2)CC1	-14%	-7%
N#Cc1ccc(/C=N/N=C(N)N)cc1	-4%	12%
Cc1cc(Nc2cccc(Cl)c2)nc2ccc(NC(=O)CCC3CCCC3)cc12	1%	12%
O=C1CC(c2nc3ccccc3n2CCCOc2ccccc2)CN1c1ccc(F)cc1 (stereo not given)	-5%	10%
Cc1ccc(CN(C)C(=O)Cc2c(C)nc3ccccc3c2C)o1	u	u
O=C(CCCCCCCC(=O)N/N=C/c1ccc(Cl)cc1)N/N=C/c1ccc(Cl)cc1	5%	11%
COc1ccccc1C(=O)Nc1c(C(=O)Nc2ccc(C)cc2)oc2ccccc12	-9%	-7%
COc1cccc(CCNCc2ccc(OC)c3ccccc23)c1	5%	-2%
CC(C)=C/C(C)=N/Nc1ccc(S(N)(=O)=O)cc1[N+](=O)[O-]	7%	20%
Cc1ccc(NC(c2ccc(Cl)cc2)c2nnc(-c3cccc(F)c3)o2)cc1C (stereo not given)	-8%	0%
COc1ccc(CC(=O)NC(C)c2nnc(SCC(=O)c3ccc(OC)cc3)n2C)cc1 (stereo not given)	0%	-5%

Record cards, as listed above.
`O=C1C(c2ccccc2)=C(c2ccccc2)c2ccccc21` in the list: 2A Renilla: 21%; 2A firefly: 16%
`CC(C)CC(NC(=O)C1CCC(C(C)C)CC1)C(=O)O` (stereo not given) in the list: 2A Renilla: 2%; 2A firefly: 6%

Continued.
SMILES	2A Renilla	2A firefly
COCCNC(=O)c1cnc2sc(N3CCC(C)CC3)nn2c1=O	-9%	-2%
COc1ccc(-c2csc3nc(-c4ccc(F)cc4)oc(=O)c23)cc1OC	-11%	-12%
CCCOc1ccc(C(=O)Nc2nonc2-c2ccc(OCC)cc2)cc1	-10%	-6%
COc1ccc2c(c1)CCC/C2=N\OC(=O)c1cc(Cl)ccc1SC	-4%	22%
O=C(Nc1ccc(F)cc1F)N1CCc2c(sc3c2CCCC3)C1c1ccc(F)cc1 (stereo not given)	-9%	-18%
CCOC(=O)c1cnc2ccc(OCC)cc2c1Nc1ccccc1OC	u	u
CC(=O)c1ccc(Nc2cc(C)nc3nc(Cc4ccc(Cl)cc4)nn23)cc1	-11%	-16%
CC(C)(C)OC(=O)N1CCC(c2c(C(=O)NCCc3ccccc3)cnn2-c2ccc(F)cc2)CC1	4%	-16%
Cc1ccc(C(=O)Nc2sc3c(c2C(=O)N2CCN(C)CC2)CCCCC3)cc1	44%[activator]	-6%
CCn1c(CCNC(=O)c2ccccc2F)nnc1SCC(=O)N1CCN(c2ccccc2)CC1	-14%	-6%
CCn1cc(/C=C(\NC(=O)c2cc(OC)c(OC)c(OC)c2)C(=O)NCCCn2ccnc2)c2ccccc21	-13%	-12%
O=C(COC(=O)c1cccc(F)c1)c1ccc([N+](=O)[O-])cc1	-5%	30%[activator]
CCn1c(SCc2c(F)cccc2Cl)nc(=O)c2c(C(=O)OC)cc(C3CC3)nc21	-18%	-30%
CS(=O)(=O)c1cccc(C(=O)Nc2ccc(N3CCOCC3)cc2)c1	-7%	17%
COC(=O)c1cc2oc3ccccc3c2n1Cc1c(F)cccc1Cl	-10%	0%
Cc1ccc(S(=O)(=O)C(CNC(=O)c2ccc(C(F)(F)F)cc2)c2ccco2)cc1 (stereo not given)	0%	-4%
FC(F)(F)c1cccc(/C=C(/Cl)c2nc3ccccc3[nH]2)c1	-4%[1.06 µM]	211%[activator]
CCOC(=O)c1c(C)[nH]c(C)c1S(=O)(=O)N1CCCC(C(=O)Nc2ccc(C)c(N(C)C)c2)C1 (stereo not given)	7%	-1%
Cc1cccc(C(=O)Nc2ccc(-c3nc4cc(C(C)C)ccc4o3)cc2)c1	10%	117%[activator]
Cc1ccc(-c2cnc(CCC(=O)Nc3cccc(C)c3C)o2)cc1	-6%	-1%
CCOc1ccc(S(=O)(=O)N2CCN(C(C(=O)O)c3c[nH]c4cc(Cl)ccc34)CC2)cc1 (stereo not given)	-12%	-10%
O=C(NCc1cccs1)c1ccc2c(c1)N(Cc1ccccc1Cl)C(=O)c1ccccc1S2	12%	-20%
Cc1cccc(-c2nc3scc(CCNS(=O)(=O)c4c(C)noc4C)n3n2)c1	162%[activator]	-11%
Cc1cccc(Cn2cc3c(=O)n(CC(=O)Nc4c(C)cccc4C)nc-3c3cc(F)ccc32)c1	-9%	-15%
CC(C)=C(C#N)c1nc2ccccc2[nH]1	3%	101%[activator]
Continued:
SMILES	2A Renilla	2A firefly
CCC(Sc1nnc2c(Cl)cc(C(F)(F)F)cn12)C(=O)Nc1cc(C)on1 (stereo not given)	18%	86%[activator]
Cc1[nH]c2ccc(F)cc2c1CC(=O)NCC(C)(C)CN(C)C	-18%	-11%
CCOC(=O)c1ccccc1NC(=O)CN1C(=O)CC(c2ccco2)Sc2ccccc21 (stereo not given)	441%[activator]	19%
Cc1oc(-c2ccccc2)nc1CC(=O)NCC1CN(C)CCO1 (stereo not given)	3%	10%
CCOC(=O)c1c(NC(=O)CCN2CCC(C)CC2)sc2c1CC(C)(C)OC2	-15%	-20%
Cc1ccc(-c2[nH]c3ccccc3c2C)cc1	40%[activator]	243%[activator]
O=C(c1ccc(S(=O)(=O)NCc2ccco2)cc1)N1CCCC1	22%	3%
Cc1ccc(NC(=O)C(=O)NCC(c2cccnc2)N2CCc3ccccc3C2)cc1 (stereo not given)	-11%	-10%
CCCn1c(C)cc(C(=O)COC(=O)c2cc3ccccc3oc2=O)c1C	8%	168%[activator]
Cc1ccc(Nc2sc(C(=O)c3ccccc3)c(N)c2S(=O)(=O)c2ccccc2)cc1Cl	26%	-3%
Cc1ccc(/C=N/NC(=O)CCc2ccccc2)cc1	50%[activator]	93%[activator]
CCc1c(C)nc(SCc2nc(-c3ccccc3)no2)[nH]c1=O	-7%	-7%
COc1ccc2c(C)c(CC(=O)NCc3ccc(F)cc3)c(=O)oc2c1C	-9%	-1%
Cc1ccc(NC(=O)CSc2nnc(NC(=O)NC3CCCCC3)s2)cc1	-5%	71%[activator]
COc1ccc(C(=O)/C=C/c2cccc(OC(=O)C3CC3)c2)cc1	42%[activator]	212%[activator]
N#CCCN(C(=O)COc1ncnc2sc3c(c12)CCCC3)c1ccccc1	20%	1%
CCc1cccc(NC(=O)CCn2c(=O)c3cccn3c3cccnc32)c1	-8%	-10%
O=C(CSc1nc2ncccc2[nH]1)Nc1cc(F)ccc1F	-4%	12%
Cc1cc(C)c2c(=O)n(Cc3ccc(Cl)cc3)c(=O)n(-c3ccccc3)c2n1	-8%	-3%
Cc1ccc(C2C=C(c3ccccc3)Nc3nc(NS(C)(=O)=O)nn32)cc1 (stereo not given)	-9%	-17%
O=C(O)c1ccc(C(=O)O)nc1	-7%	-5%
Cc1cc(OCC(=O)OCC(=O)c2ccc3c(c2)CCC3)ccc1Cl	-3%	10%
CSc1ccc(C(=O)c2[nH]c(=O)[nH]c2C)cc1	-1%	9%[11.5 µM]
NC(=O)CCN(C(=O)c1cccc(C(F)(F)F)c1)c1ccccc1	-11%	-2%
Cc1noc(CSc2ccccc2C(=O)N2CCC(C)CC2)n1	2%	-10%
Other results
SMILES	2A Renilla	2A firefly
Cc1c(N)cccc1C(F)(F)F	-2%	23%[11.5 µM]
CCOc1ccc(Cn2nnc(C(=O)Nc3ccc(Cl)cc3)c2N)cc1	-5%	4%
Cc1ccc(CNC(=O)c2cccc(-c3ccc(S(=O)(=O)N4CCCCC4)cc3)c2)cc1	-5%	-12%
CNC(=O)NC(=O)CCCN1CCN(c2oc(C3CC3)nc2C#N)CC1	-9%	5%
Cc1ccc(NC(=O)c2cc(S(=O)(=O)N3CCCCC3)c[nH]2)cc1N(C)C	13%	-5%
Cc1ccc(S(=O)(=O)Oc2ccc(Cl)cc2C2C3=C(CCCC3=O)OC3=C2C(=O)CCC3)cc1	0%	15%
Cc1nc(NC(=O)C2CC(=O)N(CC(C)C)C2)sc1C (stereo not given)	-13%	-3%
COc1cc(OC)cc(C(=O)Nc2ccc(-c3nc4ccccc4s3)c(C)c2)c1	2%	45%[activator]
COc1ccccc1NC(=O)CSc1nnc(-c2ccccc2C)o1	9%	172%[activator]
O=C(CSc1ncnc2ccccc12)Nc1c(Cl)cccc1Cl	-18%	6%
COc1ccc(OCC(=O)Nc2cc(-c3cccc(Cl)c3)nn2-c2ccccc2)cc1	6%	137%[activator]
O=C(NCc1ccncc1)c1cc(-c2ccc(F)cc2)nc2ccccc12	17%	0%
Cc1cccc(OCC(=O)Nc2ccc3oc(-c4ccccc4F)nc3c2)c1	-3%	129%[activator]
Cc1cccc(Cn2c(N3CCN(Cc4c(F)cccc4Cl)CC3)nc3c2c(=O)[nH]c(=O)n3C)c1	3%	0%
Cc1c(NC(=O)CCC(C)C)cccc1C(=O)N1CCc2sccc2C1	5%	6%
O=C(Nc1cc(Cl)cc(Cl)c1)c1cc(S(=O)(=O)NC2CCCC2)ccc1F	-7%	-6%
CCCCCc1ccc(-c2ccc(C(=O)Oc3ccc(OCCCC)cc3)cc2)nc1	5%	0%
Cc1ccc(OCC(=O)OCc2cc(=O)n3nc(C4CC4)sc3n2)cc1C	-11%	-5%
COCC(=O)N1c2nc(C(C)C)nn2C2(CCCCC2)[C@@H]2CCCC[C@@H]21	0%	2%
Cc1cccc(OC(=O)C(c2ccccc2)c2ccccc2)c1	8%	0%
COCCn1c(C)cc(C(=O)Cn2nc(C)c(C)c(C#N)c2=O)c1C	-6%	1%
Cc1ccc(C(=O)c2sc(Nc3ccc(F)cc3)nc2N)c(C)c1	17%&20%	39%&51%[activator]
O=C(CC12CC3CC(CC(C3)C1)C2)Nc1ccc(-c2nc3ccccc3o2)cc1	-2%	65%[activator]
CC1Cc2cc(S(=O)(=O)NCCC(=O)NCc3ccco3)ccc2N1C(=O)C1CC1 (stereo not given)	0%	11%
COCC(=O)N1CCc2cc(OC)c(OC)cc2C1COc1ccc2c(C)cc(=O)oc2c1 (stereo not given)	1%	-16%

Among those listed so far, 8 have a CF3 group:
SMILES	2A Renilla	2A firefly
O=C(NCCCN1CCN(Cc2ccccc2)CC1)c1ccccc1C(F)(F)F	3%	-5%
CC1CCCN(Cc2c(O)ccc3c(=O)c(-c4ccc(Cl)cc4)c(C(F)(F)F)oc23)C1 (stereo not given)	-5%	-8%
CCOc1ccc(C(=O)N2N=C(C)CC2(O)C(F)(F)F)cc1 (stereo not given)	14%	39%[activator]
Cc1ccc(S(=O)(=O)C(CNC(=O)c2ccc(C(F)(F)F)cc2)c2ccco2)cc1 (stereo not given)	0%	-4%
FC(F)(F)c1cccc(/C=C(/Cl)c2nc3ccccc3[nH]2)c1	-4%[1.06 µM]	211%[activator]
CCC(Sc1nnc2c(Cl)cc(C(F)(F)F)cn12)C(=O)Nc1cc(C)on1 (stereo not given)	18%	86%[activator]
NC(=O)CCN(C(=O)c1cccc(C(F)(F)F)c1)c1ccccc1	-11%	-2%
Cc1c(N)cccc1C(F)(F)F	-2%	23%[11.5 µM]

Single values from the results shown.
Value of `Cc1ccc(OCC(=O)OCc2cc(=O)n3nc(C4CC4)sc3n2)cc1C` in 2A Renilla: -11%
Value of `COc1ccc(OCC(=O)Nc2cc(-c3cccc(Cl)c3)nn2-c2ccccc2)cc1` in 2A Renilla: 6%
Value of `Cc1ccc(CNC(=O)c2cccc(-c3ccc(S(=O)(=O)N4CCCCC4)cc3)c2)cc1` in 2A Renilla: -5%

Additional structures follow.
SMILES	2A Renilla	2A firefly
COc1ccc(-n2nc(C(=O)N3CCCCC3)c3c4ccccc4n(C)c3c2=O)cc1Cl	-9%	-12%
O=C(C1=C(O)C(=O)N(c2nc3ccc(Cl)cc3s2)C1c1ccco1)c1ccco1 (stereo not given)	142%[activator]	319%[activator]
Cc1cccc(C)c1NC(=O)CN(C)CC(=O)NC(=O)NCc1ccccc1	1%	-5%
O=C(NCc1ccccc1Cl)c1ccc(Cn2c(SCc3ccccc3)nc3cccnc32)cc1	23%	39%[activator]
CC(=O)c1cccc(NC(=O)CN2C=NS(=O)(=O)c3ccc(C)cc32)c1	21%	-2%
O=C(Nc1ccc(C23CC4CC(CC(C4)C2)C3)cc1)c1ccc2ncsc2c1	14%	0%
Cc1ccc(C2CC(=O)C3=C(C2)OC(N)=C(C#N)C3c2ccc(F)cc2)cc1 (stereo not given)	9%	16%

Screens: PubChem, National Center for Advancing Translational Sciences (NCATS)
